KCNQ2 enhance: KCNQ2 (rat) channel potentiation. O88943. CHO-K1 KCNQ2, FluxOR thallium flux fluorescence; stronger effect = higher value. B-score at 10 µM. hit rate 0.54% among 310,000;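 active = fluorescence ratio B-score at least 3 SD of library B-scores, with initial fluorescence B-score within 3 SD, cut at about 5.3 in these data; same plate scores as AID 2156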;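 note: B-score of peak minus minimum over baseline fluorescence ratio after K+ and Tl+ stimulus; positive B-score means potentiation of KCNQ2 with more thallium influx and brighter signal; only the inactives scoring about 0 or higher are listed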
Target sequence (O88943 whole entry, looked up): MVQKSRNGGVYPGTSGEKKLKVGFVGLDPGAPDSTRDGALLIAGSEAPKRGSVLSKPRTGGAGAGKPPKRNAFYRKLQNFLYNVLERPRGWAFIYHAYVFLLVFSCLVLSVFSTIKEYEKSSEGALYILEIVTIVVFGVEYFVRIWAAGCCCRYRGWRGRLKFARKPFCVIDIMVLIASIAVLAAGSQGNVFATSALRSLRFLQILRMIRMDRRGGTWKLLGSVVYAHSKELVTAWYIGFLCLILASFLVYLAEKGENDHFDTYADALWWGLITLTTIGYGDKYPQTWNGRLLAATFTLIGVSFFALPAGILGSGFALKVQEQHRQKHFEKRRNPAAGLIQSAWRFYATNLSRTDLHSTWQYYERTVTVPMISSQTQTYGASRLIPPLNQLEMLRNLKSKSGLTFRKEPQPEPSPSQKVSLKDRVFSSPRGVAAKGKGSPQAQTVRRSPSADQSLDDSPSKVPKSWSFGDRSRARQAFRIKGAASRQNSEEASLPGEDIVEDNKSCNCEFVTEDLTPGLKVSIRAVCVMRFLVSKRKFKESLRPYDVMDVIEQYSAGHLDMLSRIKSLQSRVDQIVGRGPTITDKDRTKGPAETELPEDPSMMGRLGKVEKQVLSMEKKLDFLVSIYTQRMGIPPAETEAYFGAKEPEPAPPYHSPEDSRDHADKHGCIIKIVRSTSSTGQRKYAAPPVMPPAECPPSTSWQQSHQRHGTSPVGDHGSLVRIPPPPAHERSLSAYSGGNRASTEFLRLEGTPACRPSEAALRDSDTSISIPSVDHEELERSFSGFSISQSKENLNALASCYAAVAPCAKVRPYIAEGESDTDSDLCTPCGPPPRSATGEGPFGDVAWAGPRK
KCNQ2 enhance baseline: also measured in KCNQ2 enhance; calls as there; B-score; compound at 10 µM; measured here: initial fluorescence intensity artifact check;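 brightness before thallium and not channel activity; 0 = typical well and far values either way flag optical interference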
* = called active by the depositor.

structure	KCNQ2 enhance	KCNQ2 enhance baseline
Cc1nonc1OC(C)CNc1ccc([N+](=O)[O-])cc1 (centres undefined)	0.61	-1.31
Cc1ccccc1/[N+]([O-])=C/c1ccncc1	0.26	0.07
CCC1CCc2c(c3ccccc3[nH]c2=O)O1 (centres undefined)	1.6	0.03
CCC(O)CC(C(=O)NNc1ccccc1)C(=O)NNc1ccccc1 (centres undefined)	0.73	-1.77
C=CCn1c(=NC(=O)CN2C(=O)CCC2=O)sc2cccc(OC)c21	0.26	0.71
Cc1cccc(NC(=O)c2ccc3nc(N4CCOCC4)sc3c2)c1C	0.26	-2.49
C=C(C)C1CC=C(CN2CCN(Cc3ccccc3)CC2)CC1 (centres undefined)	0.39	-0.97
CCC1(CC)NC(=O)N(CC(=O)OCC(=O)Nc2cc(C)ccc2C)C1=O	0.11	1
CN(C)CCn1c2c(c(SCC(=O)Nc3cccc4ccccc34)nc1=O)CCC2	0.01	-0.82
O=C(O)c1cccc(NC(=O)c2ccc(S(=O)(=O)c3ccccc3)cc2)c1	0.16	0.19
O=C(Nc1nsc(-c2ccccc2)n1)c1ccc(F)cc1	4.75	0.78
O=C(CN1C(=O)c2ccccc2S1(=O)=O)Nc1ccccn1	0.08	0.67
CCOC(=O)N1CCN(C(=O)c2oc3ccc(S(=O)(=O)N4CCCCC4)cc3c2C)CC1	2.62	0.05
O=C(c1cccc(S(=O)(=O)N2CCN(c3ccc(F)cc3)CC2)c1)N1CCCCCCC1	0.02	-0.25
S=C(NC1CCCCCC1)NC1CCCC1	0.57	1.41
C=CCNc1nnc(Sc2ncccc2[N+](=O)[O-])s1	0.52	-0.13
CC(C)N1CCc2c(sc(NC(=O)c3ccc([N+](=O)[O-])o3)c2C(N)=O)C1	0.19	-1.15
CCCCNc1ccc2nsnc2c1[N+](=O)[O-]	1.3	0.04
CC1(C)CC(=O)C2=C(C1)Nc1ccccc1NC2c1cccnc1 (centres undefined)	2.43	0.03
COc1ccc(CCN=C(N)NS(=O)(=O)c2ccc(F)cc2)cc1OC	1.2	1.8
Fc1ccc(NC2=NCCCCC2)cc1	0.43	1.58
CC(CC(=O)Nc1ccc2c(c1)OCO2)c1ccccc1 (centres undefined)	0.91	-0.87
CCCc1ccc(NC(=O)C2CCCN(c3cnccn3)C2)cc1 (centres undefined)	1.01	0.87
O=c1nc2ccc(Cl)cn2c2ccc(S(=O)(=O)N3CCCCC3)cc12	0.26	-0.83
CC(C)CNC(=O)CN(C1CCCCC1)S(C)(=O)=O	0.1	0.57
COc1cc(NC(=O)c2ccc([N+](=O)[O-])o2)ccc1NC(=O)c1cccs1	0.14	-0.93
O=c1[nH]c(N2CCOCC2)nc2ccccc12	0.35	1.36
O=C(Cc1ccc(Cl)c(Cl)c1)Nc1ccccc1N1CCOCC1	0.67	-1.09
COC(=O)c1ccc(N2CCN(C(=O)c3ccccc3)CC2)c(NC(C)=O)c1	1.56	0.5
CCC(=O)Nc1ccc2nc(C3CC3)n(Cc3ccccc3)c(=O)c2c1	1.07	-0.57

A second format for some results above.
KCNQ2 enhance | KCNQ2 enhance baseline | SMILES
1.6 | 0.03 | CCC1CCc2c(c3ccccc3[nH]c2=O)O1 (centres undefined)
0.67 | -1.09 | O=C(Cc1ccc(Cl)c(Cl)c1)Nc1ccccc1N1CCOCC1
1.3 | 0.04 | CCCCNc1ccc2nsnc2c1[N+](=O)[O-]

(cont.)
structure	KCNQ2 enhance	KCNQ2 enhance baseline
O=C(NCc1ccc2c(c1)OCO2)c1ccc(CS(=O)(=O)Cc2cccc(Cl)c2)o1	2.1	-1.48
CCOc1ccc(/C=N/NC(=O)Cn2ccnc2C)cc1	0.78	-0.32
O=C(COC(=O)CSc1ccc([N+](=O)[O-])cc1)NCC1CCCO1 (centres undefined)	0.51	0.06
Cc1ccc2c(c1)N(CC(=O)N1CCOCC1)C(=O)C(C)O2 (centres undefined)	0.14	0.76
NS(=O)(=O)c1ccc(CCNC(=O)c2ccccc2[N+](=O)[O-])cc1	0.64	0.58
CCOc1ccccc1/C=C/c1onc(C)c1S(=O)(=O)N1CCC(C(=O)NC)CC1	0.05	0.54
CCOc1ccc(Br)cc1S(=O)(=O)Nc1ccc(C(=O)Nc2ccc(C)cc2)cc1	0.11	-0.27
O=C(CSc1nc2ccccc2[nH]1)NCc1ccc2c(c1)OCO2	0.93	0.91
CCOC(=O)/C=c1\s/c(=C(\C#N)C(N)=O)n(-c2ccccc2)c1=O	0.94	-2.86
O=C(Cn1cnc2c(cnn2-c2ccccc2)c1=O)NCc1ccccc1	0.04	-0.9
Cc1c(Cl)ccc2c1NC(=O)[C@]21N[C@@H](Cc2ccccc2)[C@H]2C(=O)N(c3ccc(F)cc3)C(=O)[C@H]21	1.81	0.38
CN(C)c1nc(Oc2ccc(=O)[nH]n2)nc(N2CCOCC2)n1	0.04	-0.08
CCC(Oc1ccccc1)C(=O)Nc1ccc(S(=O)(=O)Nc2ncccn2)cc1 (centres undefined)	0.17	-0.81
N#CC1=C(N)NC(SCc2ccccc2)=C(C#N)C12CCCC2	0.33	0.87
O=C(C1=NN[C@@H]2C(=O)N(c3cccc(F)c3)C(=O)[C@H]12)c1ccc2ccccc2n1	0.11	0.01
CC1CCN(S(=O)(=O)c2ccc(NC(=O)c3ccccc3F)cc2)CC1	1.69	2.07
C=CCN1N=C(/C=C/c2ccc(C)cc2)CCC1=O	0.53	-1.03
Cc1ccc(C(=O)NCCCNC(=O)c2ccc(Cl)cc2)cn1	0.07	0.72
Cc1ccccc1NC(=S)NN1CCN(C)CC1	1.16	0.08
C=CCOc1ccc(/C(O)=C2\C(=O)C(=O)N(CCOC)C2c2cccnc2)cc1 (centres undefined)	1.11	0.56
COc1ccc(CCNC(=S)N2CCN(S(=O)(=O)c3ccccc3F)CC2)cc1	1.23	-1.54
Cc1ccc(NC(=O)CCCNC(=O)c2ccc(Cl)cc2)c(O)c1	0.21	0.36
Cc1ccc(-n2c(=S)[nH]c3sc4c(c3c2=O)CCC4)cc1	1.97	2.36
CCn1c(CCCOc2ccc(Cl)cc2Cl)nnc1SCC(=O)Nc1cccc(F)c1	0.43	-0.11
CCc1cc(C(=O)NNC(=S)Nc2cccc(C)c2)cs1	0.07	2.2
Cc1cc(NC(=O)CSc2ccccn2)no1	0.15	-0.1
Cc1ccc(S(=O)(=O)N(C)c2ccc(C(=O)O)cc2)cc1	1.36	1.02
COc1cccc(-n2cc3c(=O)n(C)c(=O)n(C)c3c2)c1	0.31	-1.76
Cc1cccc(CNC(=O)C(C)n2nc(C)c3c(C)n(-c4ccccc4)nc3c2=O)c1 (centres undefined)	0.56	0.57
COc1ccc(CNc2ccc(C)c(C)c2)c(OC)c1OC	0.05	-0.96

Molecules from the list above that have two or more sulfur atoms (four):
structure	KCNQ2 enhance	KCNQ2 enhance baseline
C=CCNc1nnc(Sc2ncccc2[N+](=O)[O-])s1	0.52	-0.13
COc1ccc(CCNC(=S)N2CCN(S(=O)(=O)c3ccccc3F)CC2)cc1	1.23	-1.54
Cc1ccc(-n2c(=S)[nH]c3sc4c(c3c2=O)CCC4)cc1	1.97	2.36
CCc1cc(C(=O)NNC(=S)Nc2cccc(C)c2)cs1	0.07	2.2

(list continues)
structure	KCNQ2 enhance	KCNQ2 enhance baseline
Cc1ccc(NC(=O)CN(C)C(=O)CCCN2C(=O)c3ccccc3C2=O)cc1	0.07	2.04
CC1CN(C(=O)c2cc3cc(Cl)ccc3[nH]2)CC(C)O1 (centres undefined)	0.53	0.43
CCN(C(=O)COC(=O)c1c(NC(C)=O)sc(C)c1C)C1CCS(=O)(=O)C1 (centres undefined)	0.67	-0.37
O=C(O)c1cnc(-c2ccccc2)nc1Sc1cccc(Cl)c1	3.86	-0.47
Cc1ccc(CNC(=O)COC(=O)c2ccc(Br)cc2)cc1	0.68	-0.96
CNc1nc(OCCNC(=O)Nc2ccccc2)nc(N2CCOCC2)n1	1.55	-1.6
O=C(COC(=O)c1cccnc1Cl)c1cccc(Cl)c1	0.08	-1.03
CCCc1cc(C(=O)N2CCC(N3CCC(C(=O)NC(C)C)CC3)CC2)n(C)n1	1.1	0.13
O=C(Nc1nc2cc3c(cc2s1)OCCO3)c1ccco1	2.28	-0.72
Cn1c2ccccc2c(=O)c2cc(C#CC3(O)CCCCC3)ccc21	1.05	-0.4
CCn1c(-c2c(Cl)c(C)nn2C)n[nH]c1=S	1	-1.72
N#Cc1ccc(C(=O)Nc2ccc3ccccc3c2)cc1	1.1	-0.98
NC(=O)N1CCc2ccccc21	0.89	-0.99
COc1ccc(-c2cnnc(N/N=C/C(C)=C/c3ccccc3)n2)cc1	0.01	0.67
CCOC(=O)c1ccccc1NC(=O)c1ccccc1N(C)S(C)(=O)=O	2.29	0.1
Cc1nnc(SCC(=O)Nc2ccc(F)cc2)n(N)c1=O	0.02	0.16
CCOC(=O)C1=C(c2ccccc2)N=C2SCC(=O)N2C1c1ccc2c(c1)OCO2 (centres undefined)	0.06	-1.5
COC(=O)CN(c1nc(C)c(Cl)c(OC)n1)S(=O)(=O)c1ccc(C)cc1	0.93	-0.03
COC(=O)c1[nH]c2cccc(OC)c2c1NC(=O)C(C)N1CCC(C)CC1 (centres undefined)	1.11	-1.21
CC(C)CN1CCC(=O)N(CCSc2ccc(Br)cc2)CC1	0.46	1.07
Cc1cccc(C)c1NC(=O)CNC(=O)c1cncc(Br)c1	1.35	-0.01
Cc1nn(C)c(C)c1S(=O)(=O)N1CCC(C(=O)NC(C)c2ccccc2)CC1 (centres undefined)	1.08	0.35
CCOC(=O)c1cc(C#N)c(SCC(=O)Nc2ccc(C(C)=O)cc2)[nH]c1=O	0.13	0.63
CNC(=O)CSc1nc(-c2ccccc2)c(-c2ccccc2)[nH]1	1.13	0.74
N/C(=N\NS(=O)(=O)c1ccc(Cl)cc1)c1ccccn1	0.23	1.16
COc1cc(/C=N/NC(=O)c2cccc(S(=O)(=O)N3CCCCC3)c2)cc(Br)c1O	0.77	0.4
CCc1ccc(NC(=O)C/C(C)=N/NC(=O)COc2ccc(C)cc2Br)cc1	0.49	-2.73
CC(C)(C)c1ccc(OCCC(=O)OCC(=O)NCc2ccccc2)cc1	0.11	-0.08
O=C(Nc1c(C(=O)N2CCN(c3ccccn3)CC2)oc2ccccc12)c1ccc([N+](=O)[O-])cc1	0.02	1.35
CC(=O)Nc1ccc(/C(C)=N/Nc2nc(Nc3ccccc3)nc(N3CCOCC3)n2)cc1	1.75	-1.24

(further entries)
structure	KCNQ2 enhance	KCNQ2 enhance baseline
CCS(=O)(=O)N1CCN(c2ccc([N+](=O)[O-])c(NCC3CCCO3)c2)CC1 (centres undefined)	0.96	-1.9
CC1CC(=O)Nc2ccccc2N1C(=O)Nc1ccccc1 (centres undefined)	1.36	-0.1
CCN1CCc2c(OCC(=O)Nc3cccc(C)c3C)cccc2C1=O	0.18	-0.71
CCCCCCC1CC(CCC(=O)Nc2ccc([N+](=O)[O-])cc2)C(=O)O1 (centres undefined)	1.03	-0.29
O=C(Nc1nnc(-c2ccccc2F)s1)c1cccnc1	2.33	0.61
CCOc1cc(C)c(Cl)cc1S(=O)(=O)N1CCCC1	0.52	0.05
CCOC(=O)c1cnc(-n2nc(C)cc2C)nc1NNc1nc(-c2ccccc2)cc(-c2ccccc2)n1	0.05	1.15
CCCCn1c2nc3ccccc3nc2c2c(=O)n(-c3ccccc3)cnc21	0.5	0.87
CN1C(=O)C(=O)/C(=C(/O)c2ccc(Br)cc2)C1c1ccc(F)cc1 (centres undefined)	0.73	-0.76
O=C1COc2ccc(C(=O)COC(=O)c3ccc4ccccc4n3)cc2N1	1.9	0.16
Cc1cccc(C)c1NC(=O)C(NS(=O)(=O)c1cccs1)c1ccccc1 (centres undefined)	0.02	1.06
CC(OC(=O)CNC(=O)c1cccc(F)c1)C(=O)NC1CCCCC1C (centres undefined)	0.5	2.32
O=C(CCc1nnc(Cc2ccc(-c3ccccc3)cc2)o1)N1CCCC1	0.34	-0.21
COc1ccc(NC(=O)C2C3CCC4C(CCC32)C4(Cl)Cl)cc1 (centres undefined)	0.04	2.33
Cc1onc(-c2c(Cl)cccc2Cl)c1/C(N)=N/OC(=O)C(C)(C)C	0.14	-0.27
CC(=O)Nc1ccc(S(=O)(=O)NCC(=O)OCC(=O)N2CCCc3ccccc32)cc1	0.6	0.07
CC(=O)Nc1ccc(C2=NN(Cc3nnc(-c4ccccc4)o3)C(=O)SC2)cc1	1.05	0.92
COc1ccc(NC(=O)NN(C(=O)c2ccccc2)C(C)(C)C)cc1	0.91	-1.14
COc1ccccc1C(=O)COC(=O)c1cnc(C)cn1	0.01	1.9
Cc1ccccc1N1C(=O)C2ON(c3ccccc3)C(c3ccco3)C2C1=O (centres undefined)	0.01	0.47
O=C(NCCN1C(=O)S/C(=C\c2cccs2)C1=O)c1ccc(=O)[nH]c1	2.23	-2.39
Cc1cc(NCCO)c2ccccc2n1	0.02	-0.06
CCn1c(SCC(=O)Nc2ccccc2C)nnc1-c1ccccc1O	0.21	-0.37
Cc1nc2nc[nH]n2c(=O)c1NC(=O)c1cccc(OCC(C)C)c1	0.41	0.65
CO/N=C/C(=N\Nc1ccc(OC)cc1)C(=O)c1ccc(F)cc1	0.05	-1.4
CC1(C)C2CCC1(C(=O)O)c1nc3ccccc3nc12 (centres undefined)	2.14	0

Compound activity as filed in PubChem BioAssay.

An excerpt, so the mix of outcomes need not match the whole.
